RanGTP-Imp inh = disruptors of Ran-importin-beta complex formation – biochemical, FRET, CFP-Ran, YFP-importin-beta, homogeneous, primary screen | cell-free CFP-Ran/YFP-importin-beta FRET ratio | inhibition, % (test concentration not listed) | 1.1% of 300,000 active;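 active = most replicates above 15%; inconclusive = exactly half above 15%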;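 also: 0% = DMSO wells and 100% = Ran loaded with GDP instead of GTP; wells of about 40 µL received 100 nL stock; the first replicate is given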
Bfl-1 A1 inh = inhibitors of the anti-apoptotic protein A1, read as caspase activation. 0.066% of 330,000 active. MEF A1-2A-BIM cells, Caspase-Glo 3/7 luminescence, 3 h; percent of clofoctol response, vehicle zero. caspase activation, % (concentration not given with the values);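 active = over half of replicate activation scores above 10%, or exactly half above 10 with the replicate mean above 10; inconclusive = replicate mean below 10 yet half the replicates above 10; inactive = over half of replicates below 10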;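 also: wells of about 30 µL received 50 nL stock; many hits fall short of the cut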
B2AR ag = activates human beta-2 adrenergic receptor causing internalization; 0.43% of 340,000 active; AID 504454; response, % (no concentration beside the values); P07550; Am2.2-beta2AR cells, FAP receptor internalization, flow cytometry; reference of the scale not given here;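 active = response above a set limit, near 3 SD of response in nonfluorescent compounds, cut at about 42% in these data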;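 also: stock transfer was 100 nL into about 11 µL; a reference agonist was the positive control; negative values mostly stem from fluorescent compounds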
LANA-H2A inh = blocks KSHV LANA binding to histone H2A/H2B; cell-free LANA-H2A/H2B peptide, fluorescence polarization; inhibition, % (no concentration beside the values); 0.6% of 320,000 active; in the data active = inhibition mostly above about 10%, no sharp cut-off; inactive = mostly below about 6.7%;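 also: stock transfer was 7.5 nL into about 10 µL; 0% = median of vehicle wells and 100% = median of positive control wells; one replicate is shown; the record names a cut of 25% in any replicate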
Beta cell apopt = blocks beta cell apoptosis. INS-1E cytokine-induced death, ATP luminescence, 48 h; percent of positive-control rescue, neutral wells zero. protection from apoptosis, % (no concentration beside the values). 0.8% of 300,000 active. AID 435005;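 active = all replicates at 75% or more, or half of them and the mean; inconclusive = half reach 75% but not the mean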;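 also: 0% = cytokine-treated negative control wells and 100% = positive control rescue; higher means more ATP so stronger rescue from cytokine killing; wells of about 40 µL received 100 nL stock; the first replicate is given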
Calb FLC = C. albicans growth modulation with fluconazole | C. albicans CaCi-2 (fluconazole-resistant clinical isolate) + fluconazole, Alamar Blue growth, 48 h | growth inhibition, % (test concentration not listed) | 0.57% of 300,000 active;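 active = most replicates above 75%; inconclusive = exactly half above 75%; inactive = most below 75%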;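 also: all wells also contain fluconazole at 8 µg/ml as a sub-toxic cotreatment; 0% = median of DMSO wells and 100% = median of geldanamycin control wells; wells of about 8 µL received 7.5 nL stock; the first replicate is given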
UCH37 inh = human UCH37 deubiquitinating enzyme inhibition. inhibition, % (concentration not given with the values). purified proteasome/UCH37, Ub-AMC cleavage fluorescence. 0.33% of 330,000 active. Q9Y5K5;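 active = mean of two replicates above 20%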;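 also: 0% = compound-free wells with enzyme and 100% = wells lacking proteasome; stock transfer was 100 nL into about 20 µL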
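Test system – human UCH37 enzyme supplied as purified proteasome complex · Incubation – 30 min preincubation with enzyme, 25 min cleavage at room temperature · Detection – AMC fluorescence from Ub-AMC cleavage, excitation 355 nm, emission 460 nm · Benchmarks – no-proteasome wells (full inhibition) and compound-free wells (no inhibition)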
T cruzi repl = blocks replication of Trypanosoma cruzi | T. cruzi beta-gal in NIH3T3, luminescence, 90 h | inhibition, % (test concentration not listed) | 1.4% of 300,000 active | AID 1885;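 active = mean inhibition across valid replicates above about 55%, limit read from the data; inconclusive = mean below that limit but half or more replicates reach it; inactive = mean below it, under half of replicates reach it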;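 also: signal also drops with host cell toxicity which is not excluded here; 0% = plate median of DMSO wells and 100% = zero luminescence signal; higher percent means less beta-gal luminescence so fewer parasites; stock transfer was 50 nL into about 50 µL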
The depositor's hits bear a star; ? = inconclusive; . = not tested or not shown.

nr	SMILES	RanGTP-Imp inh	Bfl-1 A1 inh	B2AR ag	LANA-H2A inh
1	CN(C(=O)N1CCN(c2ccccn2)CC1)c1ccccc1	3.2	1.3	-8	2.5
2	CC(C)CCOc1cccc(OCC(=O)O)c1	-3.9	.	-7	.
3	COc1ccc(OCC(O)CN(C)C(=O)C(C)Oc2ccccc2)cc1 (stereo not given)	?	1.0	1	-1.5
4	O=C(NCC1CCCO1)C(c1cccs1)N(C(=O)Cn1nnc(-c2cccs2)n1)C1CCCC1 (stereo not given)	2.9	-1.2	-16	4.1
5	COc1ccc(S(=O)(=O)NCCCN2CCCC2=O)c(OC)c1	-1.4	0.1	-6	-3.6
6	Cc1ccc2oc(C(=O)N(C)Cc3cnccn3)c(C)c2c1	0.2	0.5	2	-5.3
7	COCCSc1ccccc1C(=O)NCCCn1ccnc1	1.2	-0.6	-3	2.6
8	Fc1ccccc1N1CCN(C2CCCN(Cc3cccc(C(F)(F)F)c3)C2)CC1 (stereo not given)	-4.2	0.2	2	-2.1
9	CCOC(=O)CN(C(=O)CSc1nnc(C)n1-c1ccccc1)c1cccc([N+](=O)[O-])c1	2.7	-1.0	3	2.6
10	COc1ccccc1/C=N/N1CCN(Cc2ccccc2Cl)CC1	1.4	0.2	-7	0.8
11	O=C(CNS(=O)(=O)c1cccc(Cl)c1)OCc1csc(-c2ccccc2)n1	-3.4	-0.6	-1	-0.6
12	O=C(NCc1cccnc1)NC1CCCN1S(=O)(=O)c1ccc(Cl)cc1 (stereo not given)	5.1	-0.2	-4	-3.8

nr	Beta cell apopt	Calb FLC	UCH37 inh	T cruzi repl
1	-5	5	-4.0	-2
2	.	-3	2.8	-15
3	-9	0	3.3	-8
4	.	?	2.0	6
5	3	-4	5.9	3
6	.	0	1.7	32
7	0	-15	2.2	18
8	.	-16	1.5	72*
9	-2	-6	0.4	9
10	.	2	.	-9
11	0	6	.	-24
12	-4	2	-6.1	-21

Other records follow.
nr	SMILES	RanGTP-Imp inh	Bfl-1 A1 inh	B2AR ag	LANA-H2A inh
13	CCOc1cc(/C=N/NC(N)=O)cc(Br)c1OCc1ccccc1	-0.7	0.1	6	-2.7
14	CCOc1ccccc1NC(=O)Cn1nnc(C(=O)NCc2ccc3c(c2)OCO3)c1N	4.1	0.1	-15	8.4
15	Cc1ccc(C(=O)NC(=S)Nc2ccc3c(c2)OCCO3)c(C)c1	1.3	-0.9	-4	2.8
16	COC(=O)c1ccc(Cn2nc(-c3ccc(C)cc3)ccc2=O)cc1	3.3	-1.9	4	0.1
17	Cc1ccccc1Oc1cc(NC(=O)CCCn2nc(C)c([N+](=O)[O-])c2C)cc([N+](=O)[O-])c1	-4.1	0.3	8	-1.6
18	CCc1c(C)sc2nc3c(C(=O)N4CCOCC4)cc(C(=O)c4cc(F)ccc4O)cn3c(=O)c12	-1.2	-0.5	4	3.3
19	CCc1noc(C)c1C(=O)Nc1cc(S(=O)(=O)N2CCOCC2)ccc1N1CCN(CC)CC1	-0.9	-0.2	1	-0.3
20	CCOc1ccccc1NC(=O)Nc1ccc2c(c1)OCO2	2.0	-0.2	-1	2.9
21	CC1CC1C(=O)Nc1cc(C(F)(F)F)ccc1N1CCOCC1 (stereo not given)	1.6	0.5	-17	-1.7
22	Cc1ccc(C(=O)C2CCN(CC(=O)N3CCN(c4ccc(F)cc4)CC3)CC2)cc1	.	-0.5	-3	-3.2
23	COc1ccc(C)cc1-n1nnnc1SCC(=O)c1ccc2c(c1)OCCO2	1.0	-1.1	1	1.1
24	CN(Cc1ccco1)C(=O)c1ccc(S(=O)(=O)N2CCCCCC2)cc1	.	-0.4	-1	1.2

nr	Beta cell apopt	Calb FLC	UCH37 inh	T cruzi repl
13	2	-10	.	-11
14	.	1	0.7	-1
15	3	3	1.4	-6
16	-9	-4	-3.5	4
17	105*	0	-2.0	37
18	9	-1	4.5	7
19	-1	3	0.6	1
20	2	5	0.8	13
21	-4	6	0.3	-2
22	1	-28	2.2	51
23	-1	2	-0.6	4
24	2	.	1.7	.

Reformatted: entries from further up
#20 CCOc1ccccc1NC(=O)Nc1ccc2c(c1)OCO2
#21 CC1CC1C(=O)Nc1cc(C(F)(F)F)ccc1N1CCOCC1 (stereo not given)
assay / entry | 20 | 21
RanGTP-Imp inh | 2.0 | 1.6
Bfl-1 A1 inh | -0.2 | 0.5
B2AR ag | -1 | -17
LANA-H2A inh | 2.9 | -1.7
Beta cell apopt | 2 | -4
Calb FLC | 5 | 6
UCH37 inh | 0.8 | 0.3
T cruzi repl | 13 | -2

More compounds follow.
nr	SMILES	RanGTP-Imp inh	Bfl-1 A1 inh	B2AR ag	LANA-H2A inh
25	COc1cc([N+](=O)[O-])ccc1NC(=O)NCc1cccnc1	-2.2	0.4	4	6.0
26	Cc1cccc(N(C(=O)c2snc(C(N)=O)c2N)C(C(=O)NC2CCCC2)c2ccncc2)c1 (stereo not given)	-4.0	-0.2	7	4.8
27	O=C1CCCc2oc3ccc(O)cc3c21	-0.1	0.2	5	-2.2
28	O=C(NN=C1CCCC1)C(=O)Nc1cccc(C(F)(F)F)c1	-1.4	0.9	-1	2.3
29	COc1ccccc1NC(=O)c1ccc(NS(=O)(=O)c2ccc(F)c(Cl)c2)cc1	2.4	1.6	0	-1.6
30	CN(C)Cc1ccccc1Sc1cccc2ccccc12	-4.0	0.8	7	-0.7
31	Cc1ccc(/C(O)=C2/C(=O)C(=O)N(CCCn3ccnc3)C2c2ccccn2)cc1 (stereo not given)	-1.8	.	.	.
32	CC(OC(=O)c1ccc(Cl)c(S(=O)(=O)N2CCOCC2)c1)C(=O)NC1CCCCC1C (stereo not given)	1.2	-0.1	8	-4.2

nr	Beta cell apopt	Calb FLC	UCH37 inh	T cruzi repl
25	-5	-3	8.5	19
26	3	-4	-64	3
27	-5	41	1.9	-3
28	-7	6	0.9	8
29	8	47	-1.1	-9
30	6	8	0.1	4
31	.	-6	2.7	-1
32	0	-5	2.1	0

Arranged by SMILES length (low to high): part of the list above
nr	SMILES	RanGTP-Imp inh	Bfl-1 A1 inh	B2AR ag	LANA-H2A inh
11	O=C(CNS(=O)(=O)c1cccc(Cl)c1)OCc1csc(-c2ccccc2)n1	-3.4	-0.6	-1	-0.6
19	CCc1noc(C)c1C(=O)Nc1cc(S(=O)(=O)N2CCOCC2)ccc1N1CCN(CC)CC1	-0.9	-0.2	1	-0.3
17	Cc1ccccc1Oc1cc(NC(=O)CCCn2nc(C)c([N+](=O)[O-])c2C)cc([N+](=O)[O-])c1	-4.1	0.3	8	-1.6

nr	Beta cell apopt	Calb FLC	UCH37 inh	T cruzi repl
11	0	6	.	-24
19	-1	3	0.6	1
17	105*	0	-2.0	37

Only Calb FLC and T cruzi repl, for 2 of the compounds above:
cpd | compound | Calb FLC | T cruzi repl
27 | O=C1CCCc2oc3ccc(O)cc3c21 | 41 | -3
28 | O=C(NN=C1CCCC1)C(=O)Nc1cccc(C(F)(F)F)c1 | 6 | 8
